Assay outcomes as filed in PubChem.
HPGD block: inhibitors of human 15-hydroxyprostaglandin dehydrogenase (HPGD); P15428; purified HPGD, NADH fluorescence kinetic, PGE2 substrate; Potency, µM, for inactives: at the highest dose activity change, negative = inhibition, most hits filed as inhibitors; 4.3% of 150,000 active; AID 894; active = well fitted inhibition curve with a large enough effect (not every such curve was filed as active); inconclusive = small, poorly fitted or top-dose-only effect, or another doubt; inactive = no such curve, though single readings can be large or run the other way;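 also: top concentration of the series not given in the record; plate controls included wells without enzyme; inactives centre near -10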
Target sequence (P15428 whole entry, looked up): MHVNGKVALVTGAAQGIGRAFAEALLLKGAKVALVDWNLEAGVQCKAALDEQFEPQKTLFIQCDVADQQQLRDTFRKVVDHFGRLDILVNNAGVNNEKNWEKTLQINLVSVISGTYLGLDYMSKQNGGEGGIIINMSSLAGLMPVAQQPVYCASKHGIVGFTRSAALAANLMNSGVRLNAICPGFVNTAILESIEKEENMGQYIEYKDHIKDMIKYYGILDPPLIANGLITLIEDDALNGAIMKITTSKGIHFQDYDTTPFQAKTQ
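NADH formation kinetics: reaction with 30 uM PGE2 and 1 mM NAD+ (final), 20 nM enzyme, Tris-HCl pH 8 with Tween 20, after 15 min compound preincubation at room temperature. Fluorescence change, last versus first of five reads.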
An asterisk follows results filed as active; u = inconclusive; & = joins results of further samples. % is scaled to controls: 0 for no effect and ±100 for the full control effect; potency is read from the fitted curve at half-maximal effect.

HPGD block | structure
-16.7% | CC(C)(C)c1ccc(-c2nnc(SCC(=O)c3ccc4c(c3)OCCO4)o2)cc1
-0.4%&-8.7% | CO[C@@]1(NC(=O)CSCC#N)C(=O)N2C(C(=O)O)=C(CSc3nnnn3C)CS[C@@H]21
-3.5% | COc1cccc(N2C(=O)Nc3ccccc3C2(O)C(=O)NCc2ccc3c(c2)OCO3)c1 (stereo unspecified)
-3.0% | COc1ccc(C(CC(=O)O)NC(=O)c2ccccc2)cc1OC (stereo unspecified)
-1.3% | CCC(C)NC(=O)C1c2ccccc2C(=O)N1Cc1ccccc1OC (stereo unspecified)
-15.2% | CCN(CC)S(=O)(=O)c1ccc(C(=O)NCc2ccc3[nH]c4c(c3c2)CCCC4)cc1
-6.5% | C/C(CC(=O)Nc1cc(C)ccn1)=N\NC(=O)COc1cccc(C)c1
-2.3% | COCCNC(=O)CN(c1cc(Cl)ccc1OC)S(C)(=O)=O
-5.7% | CCn1cc(/C=N/N=C2\CCC3C4CCc5cc(O)ccc5C4CC[C@]23C)c(C)n1 (stereo partly specified)
-23.4% | Cc1ccc(OCc2nnc(SCC(=O)c3ccccc3)n2Cc2ccco2)cc1
-7.7% | COc1ccc(C2C(C(=O)Nc3cccnc3)=C(C)Nc3nc(-c4cccs4)nn32)cc1 (stereo unspecified)
-6.4% | Cc1ccc(O/C=C2\OC(=O)c3ccccc32)cc1
-11.9% | O=C(O)c1nnsc1COCc1ccccc1
-19.8% | CCc1ccc(NC(=O)CCS(=O)(=O)c2cccc3nsnc23)cc1
-17.0% | COc1ccc(-c2ccc(Nc3ccc(S(=O)(=O)N4CCCC4)cc3)nn2)cc1OC
-19.1% | COc1ccc(CCNC(=O)COc2ccc(S(=O)(=O)NC3CCCCC3)cc2Cl)cc1OC
-5.1% | COc1ccccc1C1C(C#N)=C(N)N(c2cccnc2)C2=C1C(=O)CC(C)(C)C2 (stereo unspecified)
-8.0% | CCOCCCNS(=O)(=O)c1cc(Br)cc2c1N(C(=O)C1CC1)CC2
4.5% | COc1ccc(N2C(=O)C3CCCN3C2c2cccc(C)c2)cc1 (stereo unspecified)
-3.6% | CCOC(=O)C(NS(=O)(=O)c1ccc(C)cc1)(C(F)(F)F)P(=O)(OCC(C)C)OCC(C)C (stereo unspecified)
5.6% | COC(=O)c1ccc(/C=N\NC(=O)c2ccc(C)cc2Cl)cc1
-8.3% | CCc1nn(-c2ccccc2)c2c1-c1cc(OC)c(OC)cc1C1(N2)C(=O)Nc2ccccc21 (stereo unspecified)
-13.3% | CCCn1c(Nc2ccccc2)nc2ccccc21
-4.6% | Oc1ccc(CNCC2COc3ccccc3O2)cc1 (stereo unspecified)
15.8µM* | COCCCNC(=O)CC(C)c1ccccc1 (stereo unspecified)
-24.7% | CN1CCc2nc(SCC(=O)Nc3cccc(F)c3)c(C#N)c(-c3cccs3)c2C1
-14.8% | O=C1N=C(N2CCCC2)S/C1=C\c1cccc(Br)c1
-12.2% | CN(C)c1nc(OCCNC(=O)COc2ccc(Cl)cc2Cl)nc(N(C)C)n1
-8.6% | Cc1ccc(-c2nn3nnnc3c3ccccc23)cc1
-2.5% | COc1ccccc1NS(=O)(=O)c1ccc(O)cc1
u | CCCCCCSc1nnc(-c2cnn(-c3ccccc3)c2-n2cccc2)n1C
-22.4% | Cc1cc(C)cc(NC(=O)COC(=O)CCCNC(=O)c2ccc(Cl)cc2)c1
-6.8% | CN1OC(COC(=O)c2ccccc2)CC1c1ccccc1 (stereo unspecified)
-1.4% | Cc1ccc(C2=NC3(CCCCC3)NC2=S)cc1
-18.4% | O=C(CCc1ccccc1)NNC(=O)c1ccc(NC(=O)c2ccccc2)cc1
-9.9% | COc1ccc(/C(O)=C/C(=O)C(=O)NNC(=O)C(O)(c2ccccc2)c2ccccc2)cc1
-9.7% | Cc1cccc(CN2C(=O)CCSc3ccc(Cl)cc32)c1
4.5% | CCOC(=O)c1cc(C)sc1N1C(=O)C2C3C=CC(C3)C2C1=O (stereo unspecified)
-10.4% | CC(=O)c1ccc(OCC(C)C)c(CC(C(N)=O)C(N)=O)c1
u | COc1ccc(C(=O)NC(=S)NNC(=O)c2cnccn2)cc1
u | COc1ccc(C(=O)Nc2cc(Cl)ccc2Cl)c(OC)n1
u | COc1ccccc1-c1coc2cc(O)ccc2c1=O
-11.1% | O=C1NCC(O)=C1C=NCCO
-23.9% | CN1CC[n+]2cnc3ccccc3c21
u | COc1ccc(S(=O)(=O)N2CCN(c3cc(-c4ccccc4)nc4ncnn34)CC2)cc1
-12.6% | COC(=O)Cn1c(CN2CCOCC2)nc2c1c(=O)[nH]c(=O)n2C
-9.7% | O=C(CC(=O)N/N=C\c1cccc(Cl)c1Cl)NCc1ccccc1
20µM* | COc1cccc(-c2cc(C(=O)N3CCc4ccccc4C3)no2)c1
-27.2% | CCCC(=O)N1CCN(c2ccc([N+](=O)[O-])c(NC(C)c3ccccc3)c2)CC1 (stereo unspecified)
-22.5% | CC(=O)Nc1sc(C)c(C)c1C(=O)OCC(=O)N(CC(C)C)C1CCS(=O)(=O)C1 (stereo unspecified)
-13.5% | COC(=O)c1cc(C(=O)Nc2cc(C)ccn2)cc([N+](=O)[O-])c1
-4.3% | Nc1cc(=O)[nH]c(SCC(=O)Nc2ccc(Br)cc2)n1
12.6µM* | COc1ccc(Cn2nnc3c(=O)[nH]c(C4CCCN(C(=O)c5ccccc5)C4)nc32)cc1 (stereo unspecified)
-5.5% | CC(=O)NC(Cc1ccc(F)cc1)C(=O)O (stereo unspecified)
-11.5% | COc1cc(-c2nc3n(n2)C(c2ccc(F)cc2)C2=C(CCCC2=O)N3)cc(OC)c1OC (stereo unspecified)
-15.3% | COc1ccccc1NC(c1cccnc1)c1ccc2cccnc2c1O (stereo unspecified)

The list continues.
HPGD block | structure
-8.1% | Cc1cccc(OCC(=O)Nc2nnn(C)n2)c1C
-3.4% | OC(CN1CCCCC1)Cn1c(C(F)(F)F)nc2ccccc21 (stereo unspecified)
-14.1% | NS(=O)(=O)c1ccc(N/N=C2/CCCCC2C2CCCCC2)c([N+](=O)[O-])c1 (stereo unspecified)
-1.4% | O=C(NCCSCc1ccccc1)c1ccc(Cl)c(S(=O)(=O)N2CCOCC2)c1
-7.2% | C[C@@H]1C=C[C@](Cc2ccccc2)(C(=O)O)N1C(=O)c1ccccc1
-22.7% | O=C(COC(=O)c1n[nH]c2ccccc12)Nc1ccc(S(=O)(=O)N2CCCC2)cc1
u | CCc1ccc(NC(=O)c2cc(-c3ccc(OC)cc3)on2)cc1
-15.2% | Cc1ccc(C)c(N2CCN(Cc3nnnn3C3CCCCC3)CC2)c1
-16.3% | Cc1ccc(CNC(=O)CCCNC(=O)c2ccc(Cl)cc2)n1C
-5.1% | Cc1cc(C)nc(SCC(=O)Nc2ccc(S(=O)(=O)Nc3onc(C)c3C)cc2)n1
-17.5% | CC(=O)Nc1ccc(S(=O)(=O)NNC(=O)c2sc(=S)n(C)c2C)cc1
-3.7% | COC(=O)Cn1c(CCS(=O)(=O)c2ccc(C)c(C)c2)nc2ccccc21
-16.3% | CCn1c(-c2nn(C)cc2Cl)n[nH]c1=S
-4.6% | COc1ccc([N+](=O)[O-])cc1NC(=S)NC(NC(=O)Cc1ccc(OC)c(OC)c1)C(Cl)(Cl)Cl (stereo unspecified)
-14.6% | COC(=O)c1c(NC(=O)CC2SC(N)=NC2=O)sc2c1CCCC2 (stereo unspecified)
-19.5% | C=CCn1c(SCC(=O)c2c(N)n(CCC)c(=O)n(C)c2=O)nc2sc(CC)cc2c1=O

Ordered by heavy-atom count (rising): three of the compounds above.
HPGD block | structure
-16.3% | Cc1ccc(CNC(=O)CCCNC(=O)c2ccc(Cl)cc2)n1C
-5.1% | Cc1cc(C)nc(SCC(=O)Nc2ccc(S(=O)(=O)Nc3onc(C)c3C)cc2)n1
-4.6% | COc1ccc([N+](=O)[O-])cc1NC(=S)NC(NC(=O)Cc1ccc(OC)c(OC)c1)C(Cl)(Cl)Cl (stereo unspecified)

Other records.
HPGD block | structure
-3.9% | Cc1cccc(C)c1NC(=O)COC(=O)C1Cc2ccccc2CN1C(=O)c1ccccc1 (stereo unspecified)
u | Cc1cccn2c(=O)c3cc(C(=O)NCc4cccnc4)c(=N)n(C(C)C)c3nc12
u | COC(=O)c1ccc(COC(=O)c2ccc(CO)cc2)o1
-25.5% | COc1cccc(/C=N/NC(=O)c2[nH]c(C)c(C(=O)N/N=C/c3cccc(OC)c3)c2C)c1
-3.3% | O=C(C1COc2ccccc2O1)N1CCN(c2ccc(F)cc2)CC1 (stereo unspecified)
-11.9% | S=C1N(c2ccccc2)C(c2cccc3ccccc23)N2CCCN12 (stereo unspecified)
-4.6% | O=C1c2ccccc2OC2(C=Cc3ccccc3O2)N1Cc1ccccc1 (stereo unspecified)
-5.9% | CCOC(=O)c1c(C)n(C)c2ccc(OC(=O)c3ccc(N4C(=O)CCC4=O)cc3)cc12

7 consecutive compounds out of the list so far:
HPGD block | structure
-16.7% | CC(C)(C)c1ccc(-c2nnc(SCC(=O)c3ccc4c(c3)OCCO4)o2)cc1
-0.4%&-8.7% | CO[C@@]1(NC(=O)CSCC#N)C(=O)N2C(C(=O)O)=C(CSc3nnnn3C)CS[C@@H]21
-3.5% | COc1cccc(N2C(=O)Nc3ccccc3C2(O)C(=O)NCc2ccc3c(c2)OCO3)c1 (stereo unspecified)
-3.0% | COc1ccc(C(CC(=O)O)NC(=O)c2ccccc2)cc1OC (stereo unspecified)
-1.3% | CCC(C)NC(=O)C1c2ccccc2C(=O)N1Cc1ccccc1OC (stereo unspecified)
-15.2% | CCN(CC)S(=O)(=O)c1ccc(C(=O)NCc2ccc3[nH]c4c(c3c2)CCCC4)cc1
-6.5% | C/C(CC(=O)Nc1cc(C)ccn1)=N\NC(=O)COc1cccc(C)c1

Next entries follow:
HPGD block | structure
-28.8% | CCN(CC)c1ccc(N2C(=O)/C(=C/c3cccs3)SC2=S)cc1
-19.3% | CCc1ccc2c(c1)C1(C(=O)N2)N2CCCC2C(C(=O)c2ccc3ccccc3c2)C12C(=O)Nc1ccccc12 (stereo unspecified)
-25.9% | CC(C)(C)C(=O)Nc1ccccc1C(=O)OCC(=O)c1ccc2c(c1)OCCO2
-16.6% | Cc1nn(C(C)C(=O)NCCCc2ccccc2)c(=O)c2cc3occc3n12 (stereo unspecified)
-6.9% | COc1cccc(CCc2ccccc2OCC[C@@H]2C[C@@H](O)CN2C)c1
-5.8% | Cc1ccc(Cn2nc(C)c(NC(=O)CSc3nc4c(c(C(F)(F)F)n3)CCc3ccccc3-4)c2C)cc1
-7.2% | CN(C)CCCNC(NC(=O)c1cccs1)C(Cl)(Cl)Cl (stereo unspecified)
-9.0% | O=C(COC(=O)c1cc([N+](=O)[O-])ccc1NCc1ccccc1)NCc1ccccc1Cl
-10.3% | N#CCCn1c(=O)c(-c2ccc(F)cc2)nc2cnc(Oc3ccccc3)nc21
-7.7% | O=C1c2ccccc2C(Nc2ccc(Cl)cn2)N1c1ccccn1 (stereo unspecified)
-4.4% | COc1ccc(CN2CCCCC2C)cc1C (stereo unspecified)
-15.6% | CCc1ccc(NC(=O)C2CC(=O)N=C(N)S2)cc1 (stereo unspecified)
3.1% | COC(=O)C1CCN(c2cc(=O)n(-c3ccc(OC)cc3)c(=O)[nH]2)CC1
-2.6% | COc1ccc(C(=O)OCn2nnc3ccccc3c2=O)cc1OC
-17.7% | CCOc1ccc(C2c3c(oc4ccccc4c3=O)C(=O)N2CCCN2CCOCC2)cc1OCC (stereo unspecified)
-11.8% | COC(=O)CN(Cc1ccco1)S(=O)(=O)c1ccccc1
-28.1% | CCOC(=O)N1CCC(NC(=O)c2ccc3c(c2)sc2nc(-c4ccccc4)cn23)CC1
-12.2% | CC1CC(C)CN(CCCNC(=O)c2ccc3c(c2)NC(=O)C(N2CCCCC2)S3)C1 (stereo unspecified)
u | O=c1[nH]c2sc3c(c2c2nncn12)CCCC3
-20.4% | COCc1cc(C)nc2sc3c(=O)oc(C)nc3c12
-4.6% | CC(=O)OC1CC[C@@]2(C)C(CC[C@@]3(C)C2CC=C2C4CC(C)(C)CC[C@]4(C)CC[C@@]23C)C1(C)C (stereo partly specified)
-12.9% | C=CCn1c(SCC(=O)Nc2c(C)n(C)n(-c3ccccc3)c2=O)nc2sc(C)c(-c3ccccc3)c2c1=O
-25.0% | Oc1ccc(N=Cc2cc(Br)c(N3CCOCC3)o2)cc1
-9.7% | COc1ccc(-c2ccc(-c3cc(=O)oc4c(C(C)C)ccc(C)c34)cc2)cc1
u | CCCOc1ccc2c(CC)cc(=O)oc2c1C
-9.5% | COc1ccc(S(=O)(=O)NC(C)C(=O)O)cc1 (stereo unspecified)
4.3% | COc1cc(C(=O)NCc2nnc(SCC(=O)N3CCc4ccccc43)o2)cc(OC)c1OC
-18.7% | O=C(NCCCN=C1NS(=O)(=O)c2ccccc21)c1ccc(S(=O)(=O)N2CCCCC2)cc1
-28.2% | CCCc1nnc(NC(=O)c2cccc(OC)c2)s1
-3.3% | O=C(Nc1nc2ccccc2s1)C1CC(=O)N(c2ccc(Cl)cc2)C1 (stereo unspecified)

Individual results from the list:
O=C(NCCCN=C1NS(=O)(=O)c2ccccc21)c1ccc(S(=O)(=O)N2CCCCC2)cc1 – HPGD block = -18.7%
COc1cc(C(=O)NCc2nnc(SCC(=O)N3CCc4ccccc43)o2)cc(OC)c1OC – HPGD block = 4.3%

These rows are one share of the data, so the mix of outcomes need not match the whole.
